Source: PubChem (National Center for Advancing Translational Sciences (NCATS))
D2 potentiator = human D2 receptor positive allosteric modulation. P14416. DiscoveRx D2 beta-arrestin cells, luminescence, 90 min; 100% = 57 uM dopamine signal. potentiation, % (no concentration beside the values). hit rate 0.23% among 360,000. AID 624464; active = potentiation of 50% or more; inconclusive = 30% to 50%; inactive = 30% or less;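 also: compound concentration not given in the record; tested on top of an EC20 dose of dopamine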
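PathHunter beta-arrestin assay in DiscoveRx D2 cells. Compounds were added with an EC20 of dopamine (50 nM final) for 90 min at 37 deg C. Luminescence was read 1 h after detection reagent, with 57 uM dopamine as the EC100 control.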
D2 agonist = activates the human D2 dopamine receptor; activation, % (test concentration not listed); DiscoveRx PathHunter D2 beta-arrestin, luminescence, 90 min; 100% = 57 uM dopamine signal; P14416; hit rate 0.084% among 360,000; in the data active = activation above about 40%; inconclusive = about 15% to 40%; inactive = below about 15%; also: compound concentration not given in the record; the text of the record calls up to 30% inactive
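Agonist mode: compounds alone added to overnight-plated D2 PathHunter cells for 90 min at 37 C, with 57 uM final dopamine (EC100) defining full response. Beta-arrestin recruitment detected by chemiluminescent reagent, read after 1 h at ambient temperature.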
CtBP-E1A inh = blocks the CtBP interaction with E1A. AlphaScreen GST-E1A/His-CtBP binding, 1536-well; active compounds read low; control for the full effect not named in the record. activity change, % (no concentration beside the values). hit rate 0.49% among 340,000; in the data active means activity change below about -65%; inconclusive means about -30% to -65%; inactive means above about -30%; also: % is scaled to controls: 0 for no effect and ±100 for the full control effect
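In 5 uL wells, 23 nL compound meets equimolar GST-E1A and His-CtBP (5X stock 125 nM each) for 2 h, 37 °C. Beads (5X, 50 ug/mL) then 1 h, 37 °C, dark.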
Six1-Eya2 blk = blocks human Six1 binding to Eya2 | Q15475+O00167 | AlphaScreen GST-Six1/His-Eya2 binding, biochemical; active compounds read low; control for the full effect not named in the record | activity change, % (no concentration beside the values) | hit rate 0.56% among 360,000; in the data active = activity change below about -65%; inconclusive = about -30% to -65%; inactive = above about -30%; also: % is scaled to controls: 0 for no effect and ±100 for the full control effect
Target sequence (O00167 whole entry, looked up): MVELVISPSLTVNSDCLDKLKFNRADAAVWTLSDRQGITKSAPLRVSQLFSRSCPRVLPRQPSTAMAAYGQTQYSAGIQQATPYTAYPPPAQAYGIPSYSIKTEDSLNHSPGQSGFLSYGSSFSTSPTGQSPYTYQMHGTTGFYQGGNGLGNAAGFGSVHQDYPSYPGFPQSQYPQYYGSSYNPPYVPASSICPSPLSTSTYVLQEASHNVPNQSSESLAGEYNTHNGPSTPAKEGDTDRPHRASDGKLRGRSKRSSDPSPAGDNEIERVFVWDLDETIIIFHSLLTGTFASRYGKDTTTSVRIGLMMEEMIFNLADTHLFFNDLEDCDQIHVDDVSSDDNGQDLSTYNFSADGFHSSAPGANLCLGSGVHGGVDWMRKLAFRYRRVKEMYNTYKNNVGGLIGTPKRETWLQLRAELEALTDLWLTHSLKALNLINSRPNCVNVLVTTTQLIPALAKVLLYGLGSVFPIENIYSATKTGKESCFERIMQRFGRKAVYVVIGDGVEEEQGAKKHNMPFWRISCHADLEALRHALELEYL
Target sequence (Q15475 whole entry, looked up): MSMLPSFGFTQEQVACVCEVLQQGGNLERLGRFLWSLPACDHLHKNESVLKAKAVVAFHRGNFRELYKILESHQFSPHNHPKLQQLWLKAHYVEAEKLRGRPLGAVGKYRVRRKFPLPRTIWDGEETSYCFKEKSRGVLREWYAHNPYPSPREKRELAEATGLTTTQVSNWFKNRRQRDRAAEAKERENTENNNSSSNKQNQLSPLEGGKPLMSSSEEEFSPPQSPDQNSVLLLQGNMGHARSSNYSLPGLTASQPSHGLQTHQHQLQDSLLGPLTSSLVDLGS
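AlphaScreen luminescence read after one hour at 37 °C in darkness. Pin-transferred compounds met GST-Six1 and His-Eya2 protein (5X stock 250 nM/500 nM) plus glutathione donor and Ni-chelate acceptor beads (5X, 50 ug/mL).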
PINK1 expr mod = modulators of PINK1 expression | PINK1 immunofluorescence, high-content cytometry, 24 h | Potency, µM (top dose mostly 76.6 µM), for inactives: at the top dose activation (PINK1 increase), hits mostly activators | hit rate 0.2% among 410,000 | AID 624263; active = well fitted activation curve with a large enough effect; inconclusive = small, poorly fitted or top-dose-only effect; inactive = flat fitted curve, though single readings scatter; cell line not stated here;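 also: potency is read from the fitted curve at half-maximal effect; % of control where 0% means no effect; nearly all actives have a fitted effect of over 65% in size; a mitochondrial uncoupler was the plate control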
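Readout is PINK1 immunofluorescence, quantified alongside mitochondrial, cell and nuclear markers by laser-scanning microplate cytometry. Cells from a stable line were exposed to compound titrations (5 concentrations) for 24 hours, with CCCP controls.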
TRPV1 PAM = human TRPV1 potentiation; Q8NER1; TRPV1-expressing cells, Fluo-8 calcium influx, capsaicin EC20 potentiation; host cell line not named in the record; control for the full effect not named in the record; potentiation, % at 8.33 µM; hit rate 0.02% among 320,000; AID 540277; active means potentiation above 80%; inconclusive means 30% to 80%; inactive means below 30%; also: 0% is about no effect
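Cells expressing TRPV1 were dye-loaded with Fluo-8 and read kinetically: 10 s baseline, 3 min after compound (agonist portion), then 2 min after EC20 capsaicin (allosteric enhancer portion). Calcium-bound dye fluorescence at 480/520 nm.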
Sfp PPTase inh = inhibitors of Bacillus subtilis Sfp phosphopantetheinyl transferase; Q9F4F7; Biochemical Sfp PPTase activity, qHTS; Potency, µM, for the others: max response, negative = inhibition, most hits filed as inhibitors; hit rate 3.5% among 310,000; AID 1490; active = well fitted inhibition curve with a large enough effect; inconclusive = small, poorly fitted or top-dose-only effect, or another doubt; inactive = no such curve, though single readings can be large or run the other way;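 also: the enzyme is Sfp with the accession as filed and its product quenches rhodamine fluorescence; potency is read from the fitted curve at half-maximal effect; 0% = enzyme reaction without inhibitor and -100% = no enzyme wells; top concentration of the series not given in the record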
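Fluorescence-quenching assay with 15 nM Sfp, 5 uM rhodamine-CoA and 12.5 uM BHQ-2-labelled ybbR peptide in pH 7.6 Hepes/MgCl2 buffer. Enzyme was pre-incubated with compound for 15 min at room temperature. Rate was taken from the 30-min fluorescence change (525/598 nm).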
An asterisk follows results filed as active; ? = inconclusive; nt = not tested or not shown; & = joins results of further samples; [ ] = another dose, or the depositor's remark.

Below each compound – D2 potentiator	D2 agonist	CtBP-E1A inh	Six1-Eya2 blk	PINK1 expr mod	TRPV1 PAM	Sfp PPTase inh
> COc1ccc(S(=O)(=O)Nc2ccc3c(c2)OCO3)cc1
→ -3	2.6	4	2	-5.4%[38.3 µM]	0	-4%
> O=[N+]([O-])c1nn(-c2ccc(Cl)cc2)n(O)c1=NCc1ccccc1
→ -4	-1.4	-5	-12	1.0%	16	-2%
> COc1cccc(C(=O)N(CN2CCCC2=O)c2cc(C)on2)c1
→ 4	-1.3	2	3	1.9%	2	0%
> Cn1ncc([N+](=O)[O-])c1C(=O)Nc1ccc(-c2nc3ccccc3[nH]2)cc1
→ 19	1.2	-27	-29	15%[38.3 µM]	0	19%
> CCCCCN1CC(=O)N2[C@@H](Cc3c([nH]c4ccccc34)C2(C)C)C1=O
→ -8	-0.7	-10	-7	?	4	6%
> N#Cc1ccc(CSc2nnc(NC(=O)C3CC(=O)N(c4ccc5c(c4)OCCO5)C3)s2)cc1 (stereo not given)
→ 0	-3.9	8	0	-0.7%	8	6%
> CCOC(=O)N/N=C\c1cccc(OC)c1OC/C=C/c1ccccc1
→ -21	-2.0	-3	10	-0.8%	6	-1%
> CN(C)S(=O)(=O)Oc1cccc(C(=O)Nc2ccccc2Cl)c1
→ 10	-1.0	-6	2	1.0%	-19	-3%
> CCc1cccc(OCCCCN(CC)CC)c1
→ -23	-6.9	0	3	-0.2%	9	-17%
> COc1ccc(S[C@@H](CCN2CC[C@H](NC(=O)OCc3ccccc3)CCC2=O)c2ccccc2)cc1
→ -10	2.6	-13	?	0.6%	nt	nt

Looked up above:
For D2 potentiator, COc1cccc(C(=O)N(CN2CCCC2=O)c2cc(C)on2)c1 is listed with 4
For D2 agonist, N#Cc1ccc(CSc2nnc(NC(=O)C3CC(=O)N(c4ccc5c(c4)OCCO5)C3)s2)cc1 (stereo not given) is listed with -3.9
For CtBP-E1A inh, O=[N+]([O-])c1nn(-c2ccc(Cl)cc2)n(O)c1=NCc1ccccc1 is listed with -5
For Six1-Eya2 blk, CCCCCN1CC(=O)N2[C@@H](Cc3c([nH]c4ccccc34)C2(C)C)C1=O is listed with -7
For TRPV1 PAM, CCc1cccc(OCCCCN(CC)CC)c1 is listed with 9
For D2 potentiator, CCOC(=O)N/N=C\c1cccc(OC)c1OC/C=C/c1ccccc1 is listed with -21

The results go on:
Below each compound – D2 potentiator	D2 agonist	CtBP-E1A inh	Six1-Eya2 blk	PINK1 expr mod	TRPV1 PAM	Sfp PPTase inh
> Cc1ccn2c(=O)c(C(=O)NCCCN3CCCCC3C)c(O)nc2c1 (stereo not given)
→ -8	-1.3	-2	0	-0.5%&0.2%	6	8%
> COc1cccc(CNC(=S)NC2CC2)c1
→ -7	1.0	5	6	1.6%	-5	11%
> Cc1cc(NC(=O)CSc2ccc(-c3cccc([N+](=O)[O-])c3)nn2)no1
→ 3	5.9	6	4	5.2%	18	13%
> CCOCc1cc(C2NC(=O)NC(C)=C2C(=O)OCC)ccc1OC (stereo not given)
→ -6	-0.3	-3	-7	0.0%	7	15%
> COc1cc2nc(N(CCN(C)C)C(=O)c3ccc(S(=O)(=O)N(C)CC4CCCO4)cc3)sc2cc1OC (stereo not given)
→ -18	1.6	0	-3	2.6%	8	-1%
> O=C(N/C(=C/C=C\c1ccccc1)C(=O)N1CCOCC1)c1ccc(Br)cc1
→ -22	-3.5	2	-9	2.2%	-9	?
> O=C(c1nn2c(C(F)(F)F)cc(-c3ccccc3)nc2c1Cl)N1CCN2CCCC2C1 (stereo not given)
→ -9	-2.0	-5	-10	-0.1%	7	7%
> CSc1n[nH]c(=O)n1C1CCCCC1
→ 9	-6.7	nt	6	-0.4%	6	13%
> COc1ccc(CNC(=O)COc2ccc(Br)c(C)c2)cc1
→ -8	3.6	0	2	0.2%	-8	4%
> O=S(=O)(NCc1ccc(F)cc1)c1ccccc1Br
→ -7	-2.3	11	2	0.6%	-5	nt
> CCCCC1CN2CCc3c([nH]c4ccccc34)C2(C)C1 (stereo not given)
→ -13	-2.2	-8	-18	23%	23	7%
> COc1ccc(N2CCN(C3CCCN(C(=O)c4ccoc4)C3)CC2)cc1 (stereo not given)
→ -19	0.8	2	4	-1.0%	-1	17%
> Cc1c(-c2nc(-c3cccnc3)no2)cccc1[N+](=O)[O-]
→ -11	-2.3	-2	0	0.1%	13	-15%
> O=C(COC(=O)[C@@H]1CCCN1S(=O)(=O)c1ccccc1F)NCc1ccc2c(c1)OCO2
→ 1	-1.7	nt	4	-0.2%	4	nt
> CCOc1ccc(N2CC(C(=O)NCCc3ccc(OC)c(OC)c3)CC2=O)cc1 (stereo not given)
→ -17	-4.1	0	-2	-2.9%	-2	14%
> COc1ccc(CNCCNC(=O)c2cccs2)c(OC)c1OC
→ -8	1.4	-6	7	0.3%	-5	-11%
> CCOc1ccc(CCNC(=O)C2CC(=O)N(c3ccc4c(c3)OCCO4)C2)cc1OCC (stereo not given)
→ -11	-8.9	2	-6	1.7%	8	nt
> COc1cccc(C(=O)NC(=O)Nc2nc(C)cc(C(F)(F)F)n2)c1
→ -2	1.9	-3	-5	-1.3%	-22	15%
> O=C(Nc1cccc(-n2cnnn2)c1)c1cccs1
→ -13	-3.2	nt	-15	2.2%	-6	11%
> O=C(CCc1ccccc1)Nc1nc2n(n1)C(c1ccc(Cl)cc1)CC(=O)N2 (stereo not given)
→ 11	-0.8	0	18	-1.4%	3	5%
> CN(c1ccccc1)S(=O)(=O)c1cc(Cl)ccc1Cl
→ 0	2.1	6	10	4.4%	0	5%
> CCN1C(=O)[C@@H]2[C@@H](c3ccc(-c4cccc(Cl)c4)cc3)N3CCC[C@@]3(C(=O)OC)[C@@H]2C1=O
→ -11	0.4	-7	-16	3.5%	-10	nt
> CCOC(=O)c1c(-c2ccccc2)csc1NC(=O)CSc1nc(N)cc(N)n1
→ 1	2.5	-1	-5	-0.2%	-5	9%
> Cc1nc(-c2ccccc2)nc2sc(C(=O)c3ccc(F)cc3)c(N)c12
→ 7	-5.4	nt	17	8.7%	-2	-28%
> CC(=O)Nc1cc(-c2ccc(C(=O)N3CCOCC3)cc2)cn2c(-c3ccc(F)cc3)cnc12
→ -15	-5.7	-21	1	2.8%	nt	nt
> CCN(CC)CCNC(=S)Nc1ccc(F)cc1
→ -10	1.0	5	1	3.4%	-11	28µM*
> Cc1ccc(C)c(N2CCN(C(=O)CCc3nc(-c4ccc(F)cc4)no3)CC2)c1
→ nt	0.5	8	3	-0.6%	nt	nt
> CCOC(=O)Cc1csc(NC(=O)C(C)Oc2ccc3c(C)cc(=O)oc3c2)n1 (stereo not given)
→ -3	4.1	-22	-16	-0.3%	20	21%
> O=C(COC(=O)c1ccc(Cl)nc1)Nc1cccnc1Cl
→ -21	-3.4	-1	1	2.0%	3	nt
> CCN(CC)S(=O)(=O)c1ccc(NC(=O)Cc2cccs2)cc1
→ -3	3.2	nt	-1	1.4%	-3	4%

As a working copy, some entries already given:
Below each compound – D2 potentiator	D2 agonist	CtBP-E1A inh	Six1-Eya2 blk	PINK1 expr mod	TRPV1 PAM	Sfp PPTase inh
> O=C(COC(=O)c1ccc(Cl)nc1)Nc1cccnc1Cl
→ -21	-3.4	-1	1	2.0%	3	nt
> CCN(CC)S(=O)(=O)c1ccc(NC(=O)Cc2cccs2)cc1
→ -3	3.2	nt	-1	1.4%	-3	4%

(listing goes on)
Below each compound – D2 potentiator	D2 agonist	CtBP-E1A inh	Six1-Eya2 blk	PINK1 expr mod	TRPV1 PAM	Sfp PPTase inh
> CN1OC[C@@H]2CN(S(=O)(=O)c3ccccc3)[C@H](c3ccc(-n4ccnc4)cc3)C[C@@H]21
→ 0	-3.9	2	5	-1.0%	nt	nt
> CC(C)NC(=S)N1CCN(C(c2ccccc2)c2ccccc2)CC1
→ -2	4.7	0	-8	13%	-5	15%
> CNc1snc(C)c1C(=O)OCC(=O)c1ccc(OC)c(F)c1
→ 1	11	-1	2	5.4%	-4	nt
> C=CCn1c(-c2csc3ccccc23)n[nH]c1=S
→ -2	-2.4	-2	0	-3.0%[38.3 µM]	-2	-6%
> CCOC(=O)c1cnc2sc3c(n2c1=O)CCCC3
→ 1	1.6	-18	-9	0.9%	0	-19%
> CC1(C)Cc2ccccc2C(N/N=C/c2cccc(F)c2)=N1
→ -2	3.4	6	-1	-1.5%	-17	8%
> CCCn1c(=O)c(C(=O)NNS(=O)(=O)c2ccc(C)cc2)c(O)c2ccccc21
→ -8	-3.2	0	-9	6.7%	-23	13%
> CCCN(CC(=O)Nc1ccccc1C)C(=O)c1sc2ccccc2c1Cl
→ -4	0.8	-3	3	-0.1%	7	nt
> O=C(NCc1ccc(F)cc1)c1c2c(nc3ccccc13)CCN(Cc1ccccc1)C2
→ -23	0.8	15	3	7.1%	-13	3%
> CN(C)S(=O)(=O)c1ccc(C(=O)NCC(C)(C)N2CCOCC2)cc1
→ -9	-4.4	nt	6	1.0%	-5	10%
> O=C(CCc1ccccc1)Nc1nncs1
→ -8	-2.9	4	3	0.2%	2	13%
> Cc1cccc(Cl)c1OCCCN1CCOCC1
→ -11	-1.3	-2	-11	0.0%	3	-25%
> CCc1ccc(NC(=O)C2CCCN(S(=O)(=O)c3cccnc3)C2)cc1 (stereo not given)
→ -12	-1.4	-4	-4	5.4%	8	7%
> CCC1COCCS(=O)(=O)N1Cc1ccc(Cl)cc1 (stereo not given)
→ -4	1.0	nt	11	2.6%	9	13%
> COc1ccc(C(=O)CSc2nnc(C(CO)NC(=O)c3ccc(OC)cc3)n2C)cc1 (stereo not given)
→ -4	-1.1	1	-4	-1.6%	-18	11%
> S=C(CN1CCCC1=S)N1CCOCC1
→ -18	3.2	7	9	3.5%	nt	nt
> O=C(COC(=O)CNC(=O)c1cccc([N+](=O)[O-])c1)Nc1nc2ccccc2s1
→ 8	0.2	-2	0	2.0%	2	10%
> Cc1ccc(NC2CCCN(C(=O)c3ccc4nccnc4c3)C2)cc1C (stereo not given)
→ -18	-0.4	1	-21	1.4%	14	17%
> CCCn1c(NCc2ccco2)nc2ccccc21
→ -8	0.3	-14	-5	-3.6%[38.3 µM]	20	5%
> COc1ccc(Cl)cc1NC(=S)N1CC(C)OC(C)C1 (stereo not given)
→ -1	-1.4	2	3	1.4%	12	-9%
> C=CCOc1cccc(C(=O)N(C)C2CCCN(Cc3ccccc3F)C2)c1 (stereo not given)
→ -3	0.3	0	-3	-2.1%	nt	nt
